BJeLR viability – MLPCN primary cell-based screen for lethality selective to Ras in HRASV12 cells | BJeLR (HRASV12) viability, CellTiter-Glo ATP luminescence, 48 h; reference of the scale not given here | inhibition, % (no concentration beside the values) | 0.17% of 300,000 active | AID 1554, 2009;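 active = replicate mean above 50%; inconclusive = above 50% but judged a plate artefact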;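 note: 50 nL library stock added to about 25 µL; numbers are from one replicate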
PrP UTR inh – inhibition of PrP 5' UTR reporter expression; inhibition, % (test concentration not listed); AID 488862, 2010; cell-based PrP 5' UTR mRNA reporter, plate reader; 0.35% of 340,000 active;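 active = every replicate at 50% or more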;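 note: 0 = median of the neutral control wells; tested in H4 reporter cells; numbers are from one replicate; inactives centre near -14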
Sa RN4220 lethal – growth inhibition of S. aureus RN4220, primary screen, OD600; 16 h; inhibition, % (concentration not given with the values); 0.33% of 330,000 active; AID 1259311, 2017;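 active = z-score of -3 or lower and OD600 up to 0.18 on both plates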;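 note: plate controls were untreated cells for no effect and reference antibiotic for full effect; stock transfer was 100 nL into about 80 µL; one replicate is shown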
ugtP null kill – growth inhibition of ugtP-null S. aureus, primary screen, RN4220 ugtP deletion, OD600. 16 h; some inactives read as strong as hits. growth inhibition, % (no concentration beside the values). 0.54% of 330,000 active. AID 1259309, 2017;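 active = z-score under -3 and OD600 up to 0.15 on both plates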;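 note: plate controls were untreated wells for no effect and antibiotic for full effect; wells of about 80 µL received 100 nL stock; the first replicate is given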
Mtb hypoxia inh – PubChem AID 1159583; M. tuberculosis hypoxia-regulated fluorescent reporter, fluorescence; fluorescence inhibition, % (no concentration beside the values); 0.1% of 300,000 active;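 active = 35 to 45% if threefold the growth effect, above 45% if 1.5-fold the growth effect; inactive = the rest, general growth blockers included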;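 note: wells of about 50 µL received 100 nL stock; 0% = vehicle wells and 100% = reference inhibitor wells; whole bacteria with a GFP reporter of the hypoxia response; strong numbers were not always called active; many hits fall short of the cut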
Autofluor counter – counter-screen for toxin protease inhibitors: compound fluorescence; compound autofluorescence counterscreen, microsphere flow cytometry; stronger effect = higher value; fluorescence intensity (concentration not given with the values); 3.1% of 360,000 active; AID 624483;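 active = at least 3 SD above the mean of all compounds, about 16000 in these data; inconclusive = too few beads counted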;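 note: 100 nL of 1 mM stock went into each well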
Mtb hypoxia inh growth – second read-out of Mtb hypoxia inh, no call of its own (marks repeat the call); growth inhibition, %; measured here: M. tuberculosis growth (absorbance);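 0% = vehicle and 100% = reference antibiotic; read after six days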
* = called active by the depositor; u = inconclusive; x = not tested or not shown. This is a random part of the collection, and some 3.9% of all compounds hit somewhere here.

Values in the order: BJeLR viability, PrP UTR inh, Sa RN4220 lethal, ugtP null kill, Mtb hypoxia inh, Mtb hypoxia inh growth, Autofluor counter
O=C1NC(=O)N(c2ccccc2F)C(=O)/C1=C/c1cn(CC(=O)N2CCOCC2)c2ccccc12
→ 2.1, x, -3.1, 0.9, 10.5, 4.1, x
CCOc1ccc(NC(=O)CN(C)c2ccc(S(=O)(=O)N(C(C)C)C(C)C)cn2)cc1OCC
→ 3.1, -14.6, 1.1, -15.5, x, x, 2231
CCc1ccc(NC(=O)CCc2ccc(CC)o2)cc1
→ -7.8, -13.5, -2.2, -3.5, -5.8, 14.9, 3685
C[C@H]1C=CC(=O)O[C@H]1c1ccccc1
→ 5.4, -5.2, x, x, x, x, 2961
Cc1ccc(NC(=O)/C(=C/c2cccc([N+](=O)[O-])c2)NC(=O)C2CCCCC2)c(C)c1
→ -1.0, -9.4, 6.5, -0.7, -3.2, -0.5, 8697
CC1CC(=O)NC(=O)N1Cc1ccccc1 (centres undefined)
→ x, -13.7, 3.6, -0.5, 18.7, 12.6, 3532
COc1ccc(NC(=O)c2cccc(-c3ccc(O)cc3)c2)cn1
→ 5.4, -26.6, x, x, x, x, 5372
O=C(Nc1cccc(NC(=O)C2CCCO2)c1)C1CCCO1 (centres undefined)
→ 2.0, 4.2, 6.1, 15.4, 4.2, 5.4, u
O=C(O)CCCC(=O)OCCc1cc2ccccc2c(=O)o1
→ x, -11.4, 6.1, -1.2, 10.1, 3.1, 4112
O=C(CN1C(=O)C2C3C=CC(C3)C2C1=O)Nc1cccc2c1CCCC2 (centres undefined)
→ 4.1, -17.6, 0.8, 2.1, x, x, 2143
CCOC(=O)c1cccc(S(=O)(=O)N2CCOCC2)c1
→ 2.8, -15.6, 6.8, -1.6, 2.6, -0.6, 4793
Cc1ccc(OCCOCCN2CCCCC2)c([N+](=O)[O-])c1
→ 3.2, -16.5, 6.7, 3.1, 12.5, 3.2, 2694
O=C1NN(c2ccc(F)cc2)C(=O)/C1=C\c1cnn(-c2ccccc2)c1
→ -0.4, x, 0.9, -2.1, 10.8, 4.6, x
CCOC(=O)C1C(c2cccs2)NC(=O)NC1(O)C(F)(F)F (centres undefined)
→ 2.6, -26.8, -1.5, -4.0, -0.7, -3.5, 9431
CC(C)C(=O)Nc1nnc(Sc2ccc(N(C)C)cc2)s1
→ -14.8, 2.8, -0.4, -7.4, 1.1, 12.9, 3116
CCCCn1c(N)c(N(CC(C)C)C(=O)CC2CCCC2)c(=O)[nH]c1=O
→ 4.0, -3.1, 2.6, 1.2, -6.9, 1.0, 6221
Cc1ccccc1CNS(=O)(=O)c1ccc2c(c1)C(C)(C)C(=O)N2C
→ 7.1, -17.9, 4.4, 0.7, -1.1, -5.5, 5672
Cc1cc(C)nc(SCCn2c(N3CCCCC3)nc3c2c(=O)n(C)c(=O)n3C)n1
→ -9.4, -4.8, 7.2, -5.5, 10.4, 5.1, 4136
Cc1cccc(N2CCN(Cc3nc(C4CC4)no3)CC2)n1
→ -3.2, -6.2, 1.3, 8.3, 4.2, -7.7, 4599
Cc1cc(=O)oc2c(C)c(OC(=O)c3ccco3)ccc12
→ 16.6, -12.0, 4.4, 1.9, 7.0, 3.4, 5745
COc1ccc(CCNc2ccc(S(=O)(=O)N3CCN(C)CC3)cc2[N+](=O)[O-])cc1
→ -2.8, 5.3, 5.2, 11.6, 7.4, 9.3, 4222
CC(=O)c1ccc(N2CCN(S(=O)(=O)c3c(C(=O)N4CCCC4)c(C)n(C)c3C)CC2)cc1
→ 2.2, -2.9, 2.6, 2.0, 10.4, -7.5, 5260
CCOC(=O)N1CCC(NC(=O)c2ccc(CS(=O)(=O)c3c(Cl)cccc3Cl)o2)CC1
→ -6.5, -3.5, 2.9, -9.6, x, x, 5948
CCc1ccc2oc(=O)cc(CN(C)Cc3ccccc3)c2c1
→ -5.0, -14.4, 2.1, 6.0, 9.0, 6.5, 3378
O=C(NCCc1cn2ccccc2n1)C1CCCCC1
→ -3.8, -2.6, -7.3, 8.2, 4.9, 2.8, 4464
Cc1c(C(=O)N(C)CC(=O)Nc2cccc(F)c2)oc2c(Cl)cccc12
→ -1.9, -15.8, 1.4, 7.4, 9.7, 2.4, 4514
COc1ccc(OCC(=O)NN=C/C(C)=C/c2ccco2)c(Br)c1
→ x, x, 2.8, -7.6, 6.6, 12.1, x
Cc1ccc(C(=O)Cn2nc(C)c([N+](=O)[O-])c2C)c(C)c1
→ -6.7, -7.1, 6.3, 0.8, 7.0, 16.8, 3153
O=C(Nc1ccc(Cl)cc1)OCc1cc(-c2ccccc2Cl)on1
→ -3.5, -32.5, -18.7, -10.4, 3.0, 4.7, u
COc1ccc(S(=O)(=O)NCCSCc2cccc(C)c2)cc1Br
→ 0.1, -5.0, 4.0, 16.0, x, x, u
COc1cc(OC)c(C(=O)COc2ncnc3ccccc23)c(OC)c1
→ x, -3.0, -0.5, 0.5, x, x, 2925
Cc1cc(Cl)ccc1NC(=O)c1ccc2c(c1)OCO2
→ 2.8, -58.7, 1.3, 1.2, -6.9, 1.3, 3312
CCCC1CCCO[C@@](C(=O)NCCN2CCOCC2)(C(F)(F)F)C1 (some centres undefined)
→ x, x, 2.8, 0.4, 18.5, 19.3, x
CCCCc1nc(SCC(=O)N2CCCCC2)c2c(=O)n(C)c(=O)n(C)c2n1
→ 4.3, -4.2, 5.2, 6.0, 11.5, 5.9, u
CCOc1ccccc1N(CC(=O)Nc1ccccc1C(=O)N1CCCC1)S(C)(=O)=O
→ -2.0, -12.9, 3.6, 4.1, -2.8, 2.1, 6332
CS(=O)(=O)N1CCCC(C(=O)Nc2ccccc2Cl)C1 (centres undefined)
→ -16.2, -11.0, 1.9, 6.9, -1.6, 5.5, 3717
Cc1nc2ccccc2n1S(=O)(=O)c1cc(C(=O)O)ccc1Cl
→ 9.1, -18.8, 4.7, 2.6, 14.8, 1.6, 3763
O=[N+]([O-])c1ccc(Cl)c(CN2CCN(c3ncccn3)CC2)c1
→ 8.8, -2.0, 10.2, 14.0, 7.6, 0.8, x
CCOc1ccc(NS(=O)(=O)c2cc(C)c(C)cc2C)cc1
→ -2.4, -6.9, 2.8, -0.9, -18.2, -16.3, 4154
CN(C)C1(CNC(=O)c2cccc(S(=O)(=O)Nc3ccc(Br)cc3)c2)CCCCC1
→ -1.5, 5.4, 1.5, 17.1, -3.7, -3.0, u

Given in markdown: three of the compounds above
| canonical_smiles | BJeLR viability | PrP UTR inh | Sa RN4220 lethal | ugtP null kill | Mtb hypoxia inh | Mtb hypoxia inh growth | Autofluor counter |
| --- | --- | --- | --- | --- | --- | --- | --- |
| CCc1ccc2oc(=O)cc(CN(C)Cc3ccccc3)c2c1 | -5.0 | -14.4 | 2.1 | 6.0 | 9.0 | 6.5 | 3378 |
| O=C(NCCc1cn2ccccc2n1)C1CCCCC1 | -3.8 | -2.6 | -7.3 | 8.2 | 4.9 | 2.8 | 4464 |
| Cc1c(C(=O)N(C)CC(=O)Nc2cccc(F)c2)oc2c(Cl)cccc12 | -1.9 | -15.8 | 1.4 | 7.4 | 9.7 | 2.4 | 4514 |

(continued)
Values in the order: BJeLR viability, PrP UTR inh, Sa RN4220 lethal, ugtP null kill, Mtb hypoxia inh, Mtb hypoxia inh growth, Autofluor counter
Nc1cc(-c2nc3ncccc3o2)ccc1Cl
→ -2.8, -106.0, -0.3, -10.8, 9.0, 4.7, 6553
Cc1ccc(NCC(=O)NN=Cc2c[nH]c3ccccc23)cc1
→ x, x, -1.3, -3.2, -12.7, -10.6, x
CCN(C(=O)COC(=O)c1ccccc1Cc1ccccc1)c1c(N)n(Cc2ccccc2)c(=O)[nH]c1=O
→ x, 11.9, 4.1, 11.1, -4.6, -2.3, 3286
CN1CCc2cc(O)c(O)cc2C(c2ccccc2)C1 (centres undefined)
→ x, -9.1, 8.4, 1.0, 10.1, -1.1, 4566
CCN(CC)C(=O)CSc1nc(O)cc(=O)n1C
→ -19.3, -22.8, 6.1, 6.5, 8.7, 2.8, 9751
COc1ccccc1/C=C1\N=C(C(C)(C)C)OC1=O
→ -1.2, -10.6, 1.8, -0.5, 4.4, -0.6, 4497
Cc1cccc(CSCCNC(=O)c2ccc(N(C)S(=O)(=O)c3ccccc3)cc2)c1
→ 0.1, -11.0, -6.7, -8.9, x, x, 4558
CCOC(=O)C1CCN(C(=O)CCc2c(C)nc3c(-c4ccc(F)cc4)c(C)nn3c2C)CC1
→ -4.7, 3.4, 1.9, 7.8, 15.4, 9.9, 5522
Cc1ccc(-c2c[n+](CC(=O)Nc3ccccc3C)c3n2CCC3)cc1
→ -0.9, 11.6, 1.5, 9.9, -4.3, 0.2, 4724
Cc1ccc([N+](=O)[O-])cc1NC(=S)NC(=O)C(C)(C)C
→ 1.2, -5.7, 3.2, 13.6, 9.3, 14.3, 4657
CC(=O)N1c2ccc(C)cc2C(c2ccccc2)CC1C (centres undefined)
→ -2.1, -41.8, x, x, x, x, 3690
CSCCC(NC(=O)c1ccco1)C(=O)Nc1cc(C)ccn1 (centres undefined)
→ 1.7, -48.5, 5.0, 0.9, -4.7, 1.0, 6690
COC(=O)c1c(C)[nH]c(C(=O)OCC(=O)N(CC(C)C)c2c(N)n(Cc3ccccc3)c(=O)[nH]c2=O)c1C
→ 2.5, 6.5, -0.9, 6.8, -6.5, -6.9, 4432
Cc1ccc(S(=O)(=O)N2CCCC(C(=O)NCc3ccccc3F)C2)cc1 (centres undefined)
→ 3.6, -22.7, 1.2, 9.8, 2.2, 2.1, 3771
Cn1c(=O)oc2cc(S(=O)(=O)N3CCC4(CC3)OCCO4)ccc21
→ 6.1, -20.9, 5.9, 1.0, 5.6, 4.8, 22987*
Cc1ccc(S(=O)(=O)N(C)C)cc1NC(=O)Nc1ccccc1
→ -5.1, -10.8, 4.0, 10.7, 4.4, -8.8, 5632
COc1ccccc1-c1nnc(SCC(=O)Nc2ccc3[nH]c(=O)[nH]c3c2)n1N
→ -6.5, -10.0, x, x, x, x, u
Cc1cc(C)c(S(=O)(=O)N2CCCC(C(=O)N3CCOCC3)C2)c(C)c1 (centres undefined)
→ -4.2, -24.8, 2.8, 7.7, 10.9, 5.4, 5494
COc1ccc(-c2csc(Cc3nnc4n3CCCCC4)n2)cc1
→ 6.6, -20.6, 4.1, 4.8, 6.1, 6.5, 3368
COC(=O)C(=C/C(C)=C/c1cccnc1)C(=O)OC
→ -4.9, -0.4, 5.7, -1.5, 12.8, 10.1, 2381
CCN(CC)c1ccc(S(=O)(=O)N2CCOCC2)cc1NC(=O)COC(=O)/C=C/c1ccco1
→ x, -10.8, 5.6, 7.8, 6.5, 1.1, 3804
O=C(CN1C(=O)NC2(CCCC2)C1=O)Nc1ccc(F)c(F)c1F
→ -9.7, -36.3, 2.0, 4.4, 18.9, 11.6, 5843
O=C(NCC1CCCO1)c1ccc(-c2cccc(C(F)(F)F)c2)o1 (centres undefined)
→ 4.4, -11.7, 4.0, 1.1, 4.9, 13.1, 5333
Cn1c(SCc2cc(=O)[nH]c3ccccc23)nnc1-c1ccc(Br)cc1
→ 1.1, -7.8, 5.4, -5.4, 10.3, 11.0, 4170
Cc1ccc2nc(COC(=O)c3ccc(Cl)nc3)cc(=O)n2c1
→ x, -19.5, 7.0, -0.2, 19.6, 8.0, 3838
NCCCCCc1cn(C(CCC(=O)O)C(=O)NCCCCCCCCCCC(=O)N2CCNCC2)nn1 (centres undefined)
→ x, x, 6.1, 2.3, 18.2, 7.7, x
Cc1noc(C)c1C(=O)NCc1cccs1
→ 2.3, -7.4, 0.8, 5.3, 6.0, 7.2, 10949

Bioassay records as filed in PubChem BioAssay.
